# Sfp PPTase inh = qHTS Assay for Inhibitors of Bacillus subtilis Sfp phosphopantetheinyl transferase (PPTase). 4'-phosphopantetheinyl transferase ffp (Bacillus subtilis), Q9F4F7. Biochemical Sfp PPTase activity, qHTS. Potency, µM, for the others: max response, negative = inhibition, most hits filed as inhibitors. 3.5% of 310,000 active; active = well fitted inhibition curve with a large enough effect; inconclusive = small, poorly fitted or top-dose-only effect, or another doubt; inactive = no such curve, though single readings can be large or run the other way;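 note: the enzyme is Sfp with the accession as filed and its product quenches rhodamine fluorescence; potency is the fitted concentration of half-maximal effect; 0% = enzyme reaction without inhibitor and -100% = no enzyme wells; top concentration of the series not given in the record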
#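 Buffer: 50 mM Hepes-Na pH 7.6, 10 mM MgCl2, 0.01% Nonidet P-40, 0.01% BSA. Enzyme 15 nM, pre-exposed to compound 15 min; substrates then added and fluorescence change tracked over 30 min.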
# PINK1 modulator = A Quantitative High throughput Screen to Identify Chemical Modulators of PINK1 Expression. PINK1 immunofluorescence, high-content cytometry, 24 h. Potency, µM (highest dose often 76.6 µM), without a hit: at the highest dose activation (PINK1 increase), most hits filed as activators. 0.2% of 410,000 active; active = well fitted activation curve with a large enough effect; inconclusive = small, poorly fitted or top-dose-only effect; inactive = flat fitted curve, though single readings scatter; cell line not stated here;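 note: potency is the fitted concentration of half-maximal effect; % of control where 0% means no effect; nearly all actives have a fitted effect of over 65% in size; a mitochondrial uncoupler was the plate control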
#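 PINK1 protein level read as immunofluorescence by microplate cytometer in a fixed, stained stable cell line after 24 h exposure to five compound concentrations, with CCCP as control.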
# ClpP mod = qHTS Assay for Activators of ClpP. ATP-dependent Clp protease proteolytic subunit (Bacillus subtilis (strain 168)), P80244. purified B. subtilis ClpP, FRET peptide cleavage, 20 min. Potency, µM (top dose mostly 57.5 µM), without a hit: at the top dose activity change, negative = active. 1.9% of 340,000 active. AID 651965, 2013; active = well fitted falling curve with a large enough effect; inconclusive = small, poorly fitted or top-dose-only effect; inactive = no such curve, though single readings can be large or run the other way; note: potency is the fitted concentration of half-maximal effect; the source files actives as falling curves though it sought activators and does not explain the sign; nearly all actives have a fitted effect of over 65% in size; many hits overshoot -100%
# Target sequence (P80244 whole entry, looked up): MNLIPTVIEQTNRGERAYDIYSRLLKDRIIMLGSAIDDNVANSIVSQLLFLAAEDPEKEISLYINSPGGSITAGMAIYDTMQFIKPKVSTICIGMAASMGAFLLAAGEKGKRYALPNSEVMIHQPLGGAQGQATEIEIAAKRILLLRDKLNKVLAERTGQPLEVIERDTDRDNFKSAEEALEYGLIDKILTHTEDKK
#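 Purified B. subtilis ClpP, 10 microg/mL final in Tris/HCl pH8 with KCl, BSA, glycerol and Tween-20, cleaved an Abz/nitrotyrosine-quenched decapeptide. Fluorescence (ex 320, em 430) was read at 0 and 20 min at room temperature. Delta was normalized to 5.8 microM ADEP and DMSO/no-enzyme controls.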
# D2 ag = Beta-Arrestin HTS for Positive Allosteric Modulators of the Human D2 Dopamine Receptor: Agonists; DiscoveRx PathHunter D2 beta-arrestin, luminescence, 90 min; 100% = 57 uM dopamine signal; activation, % (no concentration beside the values); 0.084% of 360,000 active; AID 624465, 2012; in the data active = activation above about 40%; inconclusive = about 15% to 40%; inactive = below about 15%; note: compound concentration not given in the record; the text of the record calls up to 30% inactive
# Target sequence (P14416 whole entry, looked up): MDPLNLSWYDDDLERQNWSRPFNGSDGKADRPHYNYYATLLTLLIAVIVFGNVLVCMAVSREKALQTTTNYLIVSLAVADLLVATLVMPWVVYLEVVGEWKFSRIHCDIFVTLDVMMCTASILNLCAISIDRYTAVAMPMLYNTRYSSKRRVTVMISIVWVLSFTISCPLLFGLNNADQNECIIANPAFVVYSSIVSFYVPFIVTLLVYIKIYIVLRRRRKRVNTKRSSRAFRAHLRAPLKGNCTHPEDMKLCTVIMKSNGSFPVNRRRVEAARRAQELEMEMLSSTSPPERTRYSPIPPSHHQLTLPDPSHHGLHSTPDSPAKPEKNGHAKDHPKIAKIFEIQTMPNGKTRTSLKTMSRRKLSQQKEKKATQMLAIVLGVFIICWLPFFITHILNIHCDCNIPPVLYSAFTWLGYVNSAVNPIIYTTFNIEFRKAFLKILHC
#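 DiscoveRx PathHunter D2 beta-arrestin cells (2,100/well) attached overnight, then compound-stimulated 90 min at 37 C in HBSS/10 mM HEPES/0.1% Tween-20 buffer; beta-galactosidase complementation read by luminescence after 1 h at ambient temperature. Dopamine 57 uM final (EC100) as control.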
# gsp ag = qHTS for Agonist of gsp, the Etiologic Mutation Responsible for Fibrous Dysplasia/McCune-Albright Syndrome: qHTS | gsp mutant cells, cAMP HTRF, 30 min; control for the full effect not named in the record | Potency, µM (doses to about 76.9 µM), without a hit: at the top dose activation (cAMP increase), hits mostly activators | 0.13% of 340,000 active | AID 624287, 2012; active = well fitted activation curve with a large enough effect; inconclusive = small, poorly fitted or top-dose-only effect, or another doubt; inactive = no such curve, though single readings can be large or run the other way; cell line not stated here;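 note: phosphodiesterase inhibitor Ro 20-1724 added with compounds to block cAMP breakdown; potency is the fitted concentration of half-maximal effect; nearly all actives have a fitted effect of over 60% in size; about a fifth of the inactives were tested at one dose only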
#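 Cells in DMEM/10% FBS with G418 were pretreated with compounds in DMSO plus […] (300 uM stock) for 30 min at 37C. cAMP was measured by HTRF (cAMP-d2 plus anti-cAMP antibody-K) after 30 min at room temperature.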
# gsp antag = qHTS for Antagonists of gsp, the Etiologic Mutation Responsible for Fibrous Dysplasia/McCune-Albright Syndrome: qHTS. gsp-mutant cells, cAMP HTRF, 30 min; control for the full effect not named in the record. Potency, µM (highest dose often 76.9 µM), inactives show at the highest dose activity change, negative = inhibition, usual class: inhibitors. 0.4% of 340,000 active; active = falling curve of any shape with a large fitted effect; inconclusive = falling curve, mostly with a smaller effect; inactive = flat or rising curve; cell line not stated here;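 note: intracellular cAMP measured with PDE inhibitor Ro 20-1724 present during compound exposure; potency is the fitted concentration of half-maximal effect; % is set by controls: 0 for no effect and ±100 for the full control effect; nearly all actives have a fitted effect of over 65% in size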
#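 HTRF cAMP measurement after 30 min RT detection following 30 min, 37C compound treatment alongside […] (added as 300 uM solution) in G418-selected cells seeded at 2000/well and grown 16–24 h.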
# Menin MLL FP FL = qHTS Assay for Inhibitors Targeting the Menin-MLL Interaction in MLL Related Leukemias: Competition With Fluorescein Labeled MLL-derived Peptide; FP activity change, % at 61.4 µM; 290,000 tested, under 10 active; Fluorescence polarization, fluorescein-MLL peptide displacement from menin; inconclusive = falling polarisation curve, or a change in total fluorescence; inactive = total fluorescence flat and polarisation flat or rising; no compound was filed as active; the % refers to the polarisation; negative = inhibition;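 note: % of control where 0% means no effect; inhibitors lower the polarisation; unlabelled MLL peptide was the positive control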
# * hit, by the source's call; ? = inconclusive; nt = not tested or not shown; [ ] = dose if it differs, or a comment.
structure,Menin MLL FP FL,gsp ag,D2 ag,gsp antag,PINK1 modulator,Sfp PPTase inh,ClpP mod
C=CCn1c(Cc2ccccc2)nnc1SCc1nc2ccccc2c(=O)[nH]1,0.2,-18%,-5.1,-6%,-2.1%,-20%,nt
COc1ccc(C2=NO[C@@H]3[C@@H]4C[C@@H]([C@H]5C(=O)N(C)C(=O)[C@@H]45)[C@H]23)c(OC)c1,-0.1,3%,-0.6,3%,2.3%,22%,nt
COC(=O)Nc1ccccc1C(=O)N1CCN(c2ccc(C)cc2)CC1,3.4,12%[15.4 µM],4.0,-2%,2.4%,2%,-1.8%
O=C(CCN1C(=O)/C(=C\C=C\c2ccccc2)SC1=S)Nc1cccc(C(=O)O)c1,26,24%,-0.5,?,-0.3%,-28%,1.4%
O=C(Cc1ccc(-c2ccccc2)cc1)N1CCOCC1,-3.0,-18%,-0.7,16%,-0.8%,-4%,-1.6%
COc1cc(Cl)c(S(=O)(=O)NCc2cccnc2)cc1Cl,-0.2,-20%,0.2,8%,4.6%[38.3 µM],12%,0.3%
CCOc1cccc(C2C(C(=O)c3ccc(C)o3)=C(O)C(=O)N2c2nccs2)c1 (stereo unspecified),?,?,-3.7,0%,0.7%,56µM*,-2.3%
Nn1c(SCC(=O)Nc2nccs2)nnc1-c1ccccn1,nt,16%[15.4 µM],-3.0,6%,2.8%,nt,nt
O=C(C1=NNCC1c1ccccc1)C1OC1c1ccccc1 (stereo unspecified),2.2,30%[15.4 µM],1.9,0%,-0.9%,14%,nt
CN1c2ccccc2C(C)(C)[C@]12C=Cc1cc(O)ccc1O2,12,-7%,-1.6,-4%,?,-15%,-5.3%
CCOC(=O)CC1C(=O)NCCN1S(=O)(=O)c1cc(Cl)c(Cl)cc1Cl (stereo unspecified),14,8%,-1.5,3%,0.8%,10%,-0.5%
CC1CCCN(c2ccc(C(=O)NCCc3ccccc3)cn2)C1 (stereo unspecified),-2.4,20%,-0.8,-9%,nt,-12%,-16%
Nn1c(-c2cccs2)nc2sc3c(c2c1=O)CCCC3,6.3,13%,-3.7,?,0.1%,?,?
O=C(O)c1ccc(N/N=C/C2=C(N3CCOCC3)C(=C\c3ccccc3)/CC2)cc1,?,11%[15.4 µM],11,?,15%,50µM*,nt
COc1ccccc1NS(=O)(=O)c1ccc(C(=O)NCC(c2ccccc2OC)N2CCCC2)cc1 (stereo unspecified),nt,-1%,-4.2,-2%,-0.2%,nt,-0.7%
CC1=C(C(=O)N(C)C)CC(CC(=O)NC2CCCCC2)C(=O)N1Cc1ccccc1 (stereo unspecified),nt,-12%,-3.9,nt,-0.1%,nt,0.2%
O=C(O)c1c(-c2ccccc2)cnc2ccccc12,nt,-12%,-2.5,nt,0.4%,nt,1.4%
O=C(Nc1ccc2c(c1)OCO2)c1cnn2c(C(F)(F)F)cc(-c3ccco3)nc12,1.0,-22%,0.9,-14%,2.8%,-4%,0.6%
COCCNC(=O)C1(C)CCCN(Cc2ccc3ccccc3c2Br)C1 (stereo unspecified),nt,nt,-4.9,nt,-1.2%,nt,0.7%
CCC(=O)N1CCC1(C)C(=O)Nc1cccc(OC)c1OC (stereo unspecified),nt,nt,-5.7,nt,1.1%,nt,-0.3%

# The list continues:
structure,Menin MLL FP FL,gsp ag,D2 ag,gsp antag,PINK1 modulator,Sfp PPTase inh,ClpP mod
CC(C)C[C@H]1CN=C(Nc2ccccc2)N1CCC(C)c1ccccc1 (stereo partly specified),nt,nt,-0.5,12%,?,nt,-0.1%
CCN(CC)C(=O)CSc1nc2cc3c(cc2c(=O)n1Cc1ccc2c(c1)OCO2)OCO3,2.3,11%,-3.5,-6%,3.5%,-6%,0.3%
CN(C)c1ccc(N/C=C/C(=O)C(F)(F)F)cc1,-0.8,9%[15.4 µM],0.5,?,0.1%,?,nt
CC1(C(=O)NS(=O)(=O)c2ccc(Br)cc2)CCN1C(=O)Cc1cccs1 (stereo unspecified),nt,nt,-1.7,nt,0.9%,nt,-1.6%
CCOC(=O)c1c(C)[nH]c(C(=O)OCC(=O)N(C)CC(=O)Nc2ccccc2Cl)c1C,nt,-7%,1.8,?,0.3%,nt,1.2%
Cc1c(C2OC(=O)C3(CCCCC3)C(=O)C2(C)C)c(=O)n(-c2ccccc2)n1C (stereo unspecified),1.5,15%,-1.7,-9%,-4.0%,12%,0.0%
CCOc1ccc(S(=O)(=O)NCc2cccs2)cc1,1.4,5%,-1.4,5%,2.1%[38.3 µM],7%,2.2%
O=C(NCCN1CCNC1=O)C1CCC(=O)N(Cc2ccccc2F)C1 (stereo unspecified),nt,12%[15.4 µM],-1.9,11%,-0.2%,13%,3.6%
C=CCOC(=O)Nc1ccc(Cl)cc1NC(=O)OCC=C,3.7,1%,-0.4,-4%,-2.7%,12%,0.9%
COc1ccc(N2C(=O)CC(N(CCc3ccc(OC)c(OC)c3)C(=S)Nc3ccccc3)C2=O)cc1 (stereo unspecified),5.9,-2%,1.0,-13%,17%,-14%,1.3%
O=C(COC(=O)Cn1cnc2ccccc21)NCc1ccc(F)cc1,0.0,-2%,-7.7,16%,2.3%,20%,-0.5%
C=CCc1cccc2cc(C(=O)NCc3ccc(C(=O)OCC)o3)c(=O)oc12,-0.3,20%,-3.7,-16%,-1.7%,-6%,?
CCN1CCN(C(=S)c2ccc(O)cc2)CC1,-0.1,11%,-6.5,1%,1.8%,2.8µM*,1.2%
CCc1ccc(NC(=O)CCS(=O)(=O)c2ccc(Br)cc2)cc1,0.2,20%,6.0,3%,1.4%,14%,-1.2%
CCN1CCN(C(c2ccccc2)c2nnnn2Cc2ccc(OC)cc2)CC1 (stereo unspecified),0.6,-15%,-2.2,0%,-1.5%,-21%,1.6%
Nc1o[nH]c(=O)c1C1CCCCC1,nt,?,3.0,7%,-0.6%,nt,nt
COc1ccc(N=C2SC(CC(=O)Nc3ccc(OC)cc3OC)C(=O)N2C)cc1 (stereo unspecified),-1.7,-10%,0.2,1%,-0.9%[38.3 µM],-5%,2.0%
C=C(C)CSc1cc(C)nc2c(-c3ccccc3)c(C)nn12,-0.1,5%,-5.7,-19%,-0.1%,-15%,-4.3%
O=C(Nc1cccc(F)c1)C1CCN(C(=O)c2ccccc2Cl)CC1,-0.2,5%,-3.7,7%,-1.5%,15%,-0.6%
C(=N\Nc1nncn1/N=C/c1ccco1)/c1ccco1,5.6,-9%,-2.3,-9%,-0.5%,14%,-2.6%

# More compounds follow:
structure,Menin MLL FP FL,gsp ag,D2 ag,gsp antag,PINK1 modulator,Sfp PPTase inh,ClpP mod
O=C1C=C(c2ccc(-c3ccccc3)c(F)c2)C[C@@H](c2ccc(Cl)cc2)C1,nt,-4%,-4.0,?,-1.5%,nt,-2.3%
CCN1C(=O)C(=O)N(CC(=O)N(C)CC(=O)Nc2ccccc2Cl)C1=O,nt,-5%[15.4 µM],-1.2,-8%,-0.8%,nt,3.9%
CCC(=O)/C=C1/Sc2ccc(OC)cc2N1CCO,0.6,27%[15.4 µM],-1.5,-14%,0.9%,-2%,nt
COc1ccc(Cl)cc1Nc1nc(C)nc2c1nnn2Cc1ccccc1,0.1,26%,2.9,2%,6.4%,-17%,nt
Cc1cc(C(=O)Nc2cccc([N+](=O)[O-])c2C)cs1,-5.8,29%,-0.1,3%,3.1%,-3%,11%
O=C(O)c1cc(NC(=O)c2ccccc2F)cc(NC(=O)c2ccccc2F)c1,2.4,3%,5.2,3%,1.1%,8%,nt
CC(=O)Nc1ccc(NC(=O)C2(C)CC2(Cl)Cl)cc1 (stereo unspecified),-2.5,2%[15.4 µM],-5.5,-8%,0.9%,-8%,2.9%
Cc1cccc(NC(=O)CCc2ccc(C)o2)c1,8.3,-20%,3.5,-21%,-1.9%,?,0.4%
CCCCc1nc(SCC(=O)Nc2nnc(CCCC)s2)n[nH]1,0.1,4%,-0.6,-4%,0.4%,14%,1.4%
Cc1noc(C)c1COc1ccc(C(=O)N2CCN(S(=O)(=O)c3ccc(F)cc3)CC2)cc1,nt,-4%,2.7,?,-0.8%,nt,1.2%
O=C(C1CCCCN1S(=O)(=O)c1ccccc1[N+](=O)[O-])N1CCCC1 (stereo unspecified),-2.1,-6%[15.4 µM],-7.7,-10%,-1.2%,-5%,-4.1%
O=C(NCC1CCCN1S(=O)(=O)c1cccs1)c1cccc(F)c1 (stereo unspecified),nt,-39%,-2.6,0%,-0.3%,nt,-3.1%
O=C(COC(=O)c1ccc(N2CCCC2=O)cc1)c1ccc(OC(F)F)cc1,-4.1,17%,2.7,2%,14%,3%,nt
Cn1nc(-c2ccc(N3CCCCC3)c(NC(=O)c3ccco3)c2)c2ccccc2c1=O,2.5,-49%,-2.0,-1%,17%,-27%,-5.4%
CC(=O)N1CCOc2ccc(S(=O)(=O)NCCc3ccc(Cl)cc3)cc21,2.6,-15%,1.3,2%,0.2%,4%,0.2%
CCCCNC(=O)CC1C(=O)N(Cc2ccccc2)C(C)c2nc3ccccc3n21 (stereo unspecified),1.4,4%,-4.7,3%,19%[38.3 µM],-10%,-3.0%
COCCCN1C(=O)C(CC(=O)NC(c2ccccc2)c2ccccc2)CC(C(=O)N(C)C)=C1C (stereo unspecified),nt,-40%[inhibitor],-5.7,nt,0.9%,nt,-2.5%
COc1ccc(CCNC(=O)C(=O)NCC2CCCN2S(=O)(=O)c2cccs2)cc1OC (stereo unspecified),nt,0%,-0.3,2%,-1.2%,nt,-4.4%

# Source: PubChem BioAssay (National Center for Advancing Translational Sciences (NCATS))
